# Bioassay records: PubChem, National Center for Advancing Translational Sciences (NCATS)
# SmPrx2 inh: inhibitors of Schistosoma mansoni peroxiredoxin 2; hit rate 0.07% among 65,000; S. mansoni Prx2 activity coupled to TGR/GSH (TGR is thioredoxin glutathione reductase), NADPH fluorescence loss, qHTS; some inactives read as strong as hits; AID 448; Potency, µM; active means full or partial inhibition curve with a strong effect at the top dose; inconclusive means weaker partial or single-point curve; inactive means no accepted curve; note: series up to 57 µM; many of its hits are not listed in these tables
#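 Purified S. mansoni TGR and Prx2 in pH 7.4 phosphate buffer with EDTA and Tween-20 were preincubated with compounds for 15 min. Further NADPH/GSH was added, then a 2.5 mM H2O2 aliquot initiated turnover, followed kinetically by NADPH fluorescence.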
# Anthrax LT inh: blocks cellular internalization of anthrax lethal toxin. Cells, anthrax lethal toxin internalization, FRET ratio (460/530). hit rate 0.67% among 70,000. Potency, µM (doses to about 40 µM), inactives show at the highest dose activity change, negative = inhibition, usual class: inhibitors; active = well fitted falling ratio curve with the 530 nm signal flat; inconclusive = other ratio curves, or a change in one channel alone; inactive = flat curves in the ratio and both channels; the % refers to the ratio; note: % is set by controls: 0 for no effect and ±100 for the full control effect; nearly all actives have a fitted effect of over 50% in size; tested in ME-180 cells; beta-lactamase reporter
# * marks the source's active call; other numbers are inactive results; ? = inconclusive; . = not tested or not shown; [ ] = remark or other dose. Potency is the fitted concentration of half-maximal effect. Some of the compounds tested, so the mix of outcomes need not match the whole.
# Preview (7 entries):
# Order of values: SmPrx2 inh	Anthrax LT inh
> O=C(Cc1ccccc1)OC(COCc1ccccc1)CN1CCOCC1 (centres undefined)
→ >57	-7%
> O=C(CCCc1nc(-c2ccccc2)no1)NCc1cccnc1
→ >57	14%
> Cc1cc(Cl)cc(C)c1OCC(=O)O
→ >57	?
> Cc1ccc(NC(=O)c2cc(-c3ccc(C)o3)nc3ccccc23)nc1
→ .	1%
> Cc1cc(C)n(CC(O)CN2C(=O)NC(C)(C)C2=O)n1 (centres undefined)
→ >57	2%
> CCCn1c(C)nc2c(NCCN(C)C)nc(C)nc21
→ .	1%
> CCOC(=O)c1nnn(-c2nonc2-n2cccc2)c1CN1CCCCC1
→ >57	?

# This part in full, repeating the preview:
# Order of values: SmPrx2 inh	Anthrax LT inh
> O=C(Cc1ccccc1)OC(COCc1ccccc1)CN1CCOCC1 (centres undefined)
→ >57	-7%
> O=C(CCCc1nc(-c2ccccc2)no1)NCc1cccnc1
→ >57	14%
> Cc1cc(Cl)cc(C)c1OCC(=O)O
→ >57	?
> Cc1ccc(NC(=O)c2cc(-c3ccc(C)o3)nc3ccccc23)nc1
→ .	1%
> Cc1cc(C)n(CC(O)CN2C(=O)NC(C)(C)C2=O)n1 (centres undefined)
→ >57	2%
> CCCn1c(C)nc2c(NCCN(C)C)nc(C)nc21
→ .	1%
> CCOC(=O)c1nnn(-c2nonc2-n2cccc2)c1CN1CCCCC1
→ >57	?
> CC1(C)CC(=O)C(=CN2CCN(C(=O)c3ccco3)CC2)C(=O)C1
→ >57	-18%
> O=C(c1cccs1)N1CCC(c2nc3ccccc3s2)CC1
→ >57	-3%
> CCn1c(=O)cc(SCC(=O)NCC2CCCO2)c2ccccc21 (centres undefined)
→ >57	-9%
> O=C(Nc1cccnc1)C1CCCN1S(=O)(=O)c1ccc(Cl)c(Cl)c1 (centres undefined)
→ >57	.
> O=C(COC(=O)c1cnccn1)Nc1ccc2c(c1)OCO2
→ >57	12%
> O=C(c1ccncc1)N1CCC[C@@]2(CCN(Cc3ccccc3)C2)C1
→ >57	11%
> COc1ccc(CCn2c(=S)[nH]c3cc(C(=O)NCc4ccco4)ccc3c2=O)cc1OC
→ .	9%
> COc1cc(OC)c(C(=O)Oc2ccc3c(c2)OCO3)cc1OC
→ >57	?
> O=C(O)CSc1nc(-c2ccccc2)nc2c1oc1ccccc12
→ >57	-24%
> Cc1ccc2cc(C(c3nnnn3C3CCCC3)N(Cc3ccccc3)Cc3ccco3)c(=O)[nH]c2c1 (centres undefined)
→ >57	0%
> CC(C#N)Sc1ncnc2sc3c(c12)CCC3 (centres undefined)
→ >57	20%
> CCOC(=O)CCC(NC(=O)c1ccc(NCN2C(=O)CCC2=O)cc1)C(=O)OCC (centres undefined)
→ >57	13%
> Cc1ccccc1OCC(=O)NCCC(=O)O
→ >57	-15%
> CN(C)S(=O)(=O)c1ccc2nc(NC(=O)c3cccnc3)sc2c1
→ >57	-10%
> O=C(CSc1nnc2ccccn12)Nc1ccccc1C(=O)NC1CC1
→ >57	6%
> CC(=O)c1ccccc1[N+](=O)[O-]
→ .	8%
> C=CCn1c(CCC(=O)O)ccc1-c1ccccc1
→ .	?
> CCn1c(=O)cc(OCC(=O)N2CCN(C(=O)c3ccco3)CC2)c2ccccc21
→ >57	-6%
> CO[C@H]1COC(=O)[C@H](C)COC(=O)[C@@H](OCc2ccccc2)/C=C\[C@@H]1C
→ .	8%[1.6 µM]
> CC(C)c1ccc2oc(-c3cc(N)ccc3O)nc2c1
→ .	13µM*
> COc1ccc(-n2c(=O)c(C)nc3cncnc32)cc1
→ >57	7%
> N#CCCn1c(=O)cnc2cnc(Oc3ccccc3)nc21
→ >57	-10%
> CCn1nnc(NC(=O)COc2cc(C)ccc2C(C)C)n1
→ >57	9%
> O=Cc1cccc(Br)c1
→ .	-1%
> COc1cccc(-n2nnc3c(=O)n(C/C=C/c4ccccc4)cnc32)c1
→ >57	?
> O=C(CSc1nnc(COc2ccc(Cl)cc2)n1Cc1ccco1)c1ccccc1F
→ >57	?
> CCCCSc1nc2c(c(=O)[nH]c(=O)n2C)n1CCc1ccccc1
→ >57	-4%
> Cc1nc2ccccc2nc1OCC(=O)NCc1ccc2c(c1)OCO2
→ >57	13%
> Cc1ccc(-n2c(O)c(C=NC3CCCCC3N)c(=O)[nH]c2=O)cc1C (centres undefined)
→ >57	?
> CCc1ccc(CC)c(S(=O)(=O)Nc2ccc(C(=O)O)c(O)c2)c1
→ >57	-16%
> CCOC(=O)C1CCN(C(=O)c2ccc(Br)o2)CC1
→ >57	1%
> Oc1oc(-c2ccco2)nc1C=Nc1ccccc1
→ >57	2%
> CC(C)C[C@@H](CC(=O)N[C@@H](CCC(=O)O)CC(=O)O)NC(=O)[C@@H]1CCCC[C@H]1NC(=O)C[C@H](CCCN)NC(=O)C[C@H](CO)NC(=O)[C@@H]1CCCC[C@H]1N
→ >57	-17%
> CCc1ccc2[nH]c(=O)c(CN(Cc3ccccc3)Cc3nnnn3Cc3ccco3)cc2c1
→ .	?
> CC(=O)Oc1ccc(C(=O)Nc2nnc(C)s2)cc1
→ .	-16%
> CCOc1cc(-c2nc(-c3ccc(C)nc3OC)no2)cc(OCC)c1OCC
→ >57	-3%
> COc1ccc(C(=O)Nc2cccc(C)c2)cc1
→ .	-10%
> COc1ccc(OC)c(NC(=O)C2C3C=CC(C3)C2C(=O)NCc2ccccn2)c1 (centres undefined)
→ >57	0%
> Cn1c(CN2CCOCC2)nnc1SCC(=O)NCCc1ccccc1
→ >57	4%
> CC(C)(C)NC(=O)NC(=O)COC(=O)COc1ccc2c(c1)CCC2
→ >57	11%
> COc1ccc(S(=O)(=O)N2CCCC(C(=O)O)C2)cc1Cl (centres undefined)
→ >57	1%
> CCOc1ccc2cc(S(=O)(=O)n3ccnc3C)ccc2c1
→ .	-14%
> CS(=O)(=O)Nc1ccccc1C(=O)NCc1ccco1
→ >57	3%
> CCN(CC)S(=O)(=O)c1cccc(C(=O)N2CC(O)CC2C(=O)O)c1 (centres undefined)
→ >57	-11%
> COc1ccc(NC(=O)C2CCCN(C(=O)NC3CCCCC3)C2)cc1OC (centres undefined)
→ >57	-9%
> CN1CCCC(OC(=O)c2cc(Cl)ccc2Cl)C1 (centres undefined)
→ >57	-22%
> CC(=O)Nc1cccc(NC(=O)C2CC(=O)N(c3ccc(C)cc3)C2)c1 (centres undefined)
→ >57	3%
> COc1cc(OC)cc(C(=O)N2CCN(Cc3cccc(F)c3)CC2)c1
→ >57	-1%
> Cn1c(CNc2nc(-c3ccccc3)cs2)nnc1SCC(=O)c1ccccc1
→ >57	2%
> CC1CCCC(C)N1C(=O)CSc1nnc(NC(=O)c2cccs2)s1 (centres undefined)
→ >57	5%
> Cc1ccc(C2CC(c3cccc(Br)c3)Nc3nnnn32)cc1 (centres undefined)
→ >57	-10%
> COc1ccccc1N1CCN(S(=O)(=O)c2ccc(F)cc2)CC1
→ .	-26%
> COc1ccc(C(c2nnnn2Cc2cccs2)N2CCC(C(N)=O)CC2)c(OC)c1 (centres undefined)
→ >57	5%

# (next part)
# Order of values: SmPrx2 inh	Anthrax LT inh
> Cc1ccc2cccc(S(=O)(=O)NC3CCS(=O)(=O)C3)c2n1 (centres undefined)
→ >57	.
> COc1ccc(C(=S)N2CCCC2)cc1C
→ >57	-2%
> O=C(NCc1cccnc1)c1ccc(S(=O)(=O)N2CCOCC2)cc1
→ >57	?
> CC(C)(C)c1csc(N(CCC#N)CCC#N)n1
→ >57	6%
> CCC(C)NC(=O)CC1Oc2ccc(Cl)cc2NC1=O (centres undefined)
→ >57	-3%
> CCC1CCCCN1CC(=O)Nc1cc(C)nn1-c1nc(C)cc(C)n1 (centres undefined)
→ >57	-4%
> COC(=O)[C@@]1(Cc2ccc(OC)cc2)[C@H]2c3cc(C(=O)N4CCCC4)n(Cc4c(CO)[nH]cc(C)c4=O)c3C[C@H]2CN1C(=O)c1ccccc1
→ >57	?
> CS(=O)(=O)c1sc2nc(-c3cccs3)cc(-c3ccccc3)c2c1N
→ >57	?
> Cc1cc(Br)ccc1OCC(=O)N(Cc1nc(-c2ccccc2)no1)C(C)C
→ >57	?
> Cc1ccc(S(=O)(=O)Cn2nnnc2C(C(C)C)N2CCSCC2)cc1 (centres undefined)
→ >57	?
> COC(=O)c1cccc(NC(=O)C2COc3ccccc3O2)c1 (centres undefined)
→ >57	.
> COc1ccc(-n2c(Cc3cccn3C)nnc2SCC(=O)Nc2cccc(NC(C)=O)c2)cc1
→ >57	-6%
> Cc1csc(NC(=O)CSc2nnc(-c3ccoc3C)o2)n1
→ >57	4%
> O=C(O)CN(CC(=O)O)c1ccccc1
→ >57	-9%[8 µM]
> Cc1cc(C)n(-c2nc(NCC(C)O)c3c4c(sc3n2)CCCC4)n1 (centres undefined)
→ >57	17%
> COCCN(CCOC)Cc1c(C)[nH]c2ccccc2c1=O
→ >57	-4%
> CCOC(=O)C1=C(C)NC(=O)NC1c1ccc(Cl)cc1Cl (centres undefined)
→ >57	3%
> CCCCCCNC(=O)Cc1c(O)c2ccccc2[nH]c1=O
→ >57	-11%
> O=C(CN1CCOc2ccccc21)N1CCN(c2cccc(Cl)c2)CC1
→ >57	?
> CC(=O)Nc1cc(-c2nn3c(C)nnc3s2)ccc1C
→ >57	-4%
> O=C(NCc1ccc(F)cc1)C1CCCN(C(=O)Nc2ccccc2)C1 (centres undefined)
→ >57	0%
> Cc1ccc(-c2noc(CCC(=O)Nc3ccccc3N3CCN(C)CC3)n2)cc1
→ >57	-4%
> CC(C)NC(=O)N1CC2(CCN(C(=O)c3ccco3)CC2)C1
→ >57	-2%
> Cn1c(=O)c(-c2ccc(Cl)cc2)nc2cnc(OCc3ccccc3)nc21
→ >57	?
> COc1ccc(N2CCN(CC(O)c3c[nH]c4ccc(OC)cc34)CC2C)cc1 (centres undefined)
→ >57	-6%
> CCc1ccc(C(=O)CSC2=C(C#N)C(c3ccco3)C(C(C)=O)=C(C)N2)cc1 (centres undefined)
→ .	?
> O=C(NCc1n[nH]c(=S)n1-c1cccc(Cl)c1)c1ccc(S(=O)(=O)N2CCCC2)cc1
→ >57	1%
> COc1cccc(-c2noc(C3CCCN(S(=O)(=O)c4cccc(Cl)c4C)C3)n2)c1 (centres undefined)
→ >57	-12%
> NC(=O)c1oc2ccccc2c1NC(=O)c1ccc(F)cc1
→ >57	4%
> CN(C)CCSc1nnc2sc3ccccc3n12
→ >57	?
> Cc1ccc(-c2cc(-c3ccccc3)c(C#N)c(N)n2)o1
→ >57	-4%
> Cc1cc(C)nc(SCC(=O)c2ccc(O)cc2O)n1
→ >57	-3%
> O=C(Oc1ccc2ccc(=O)oc2c1)N1CCOCC1
→ >57	11%
> Cc1noc(C)c1C(=O)N1CCC[C@@]2(CCN(c3ccccn3)C2)C1
→ >57	7%
> O=C(Cn1cnc2c(nnn2Cc2ccc(Cl)cc2)c1=O)N1CCCc2ccccc21
→ >57	-19%
> N=c1c2c3c(sc2ncn1CCN1CCOCC1)CCCC3
→ >57	.
> COC(=O)C1(C(F)(F)F)N=C2Sc3ccccc3N2C(N2CCOCC2)=N1 (centres undefined)
→ >57	3%
> COc1ccc(C(=O)N(c2ccccc2)C2C=CS(=O)(=O)C2)cc1 (centres undefined)
→ >57	-6%
> Nc1cccc(Cl)c1
→ .	?
> CC1(C)OC(=O)N(CCc2ccccc2)C1(C)O (centres undefined)
→ >57	3%
> Cc1ccc(CCP(=O)(O)CN2CCOCC2)cn1
→ .	-13%
> Cn1c(=O)c(C(=O)NCCO)c(O)c2ccccc21
→ >57	-20%
> O=C(NCCN1CCOCC1)C1CCC(=O)N1C1CCCCC1 (centres undefined)
→ >57	-1%
> CCC(C)c1ccc(O)c(NC(=O)c2cncc(Br)c2)c1 (centres undefined)
→ >57	?
> C=CC[C@@H]1C=C[C@@H](O/N=C2/C[C@@H](O)[C@@H](O)[C@@H]3[C@@H]4C(=O)N(CC)C(=O)[C@H]4CC[C@@H]23)[C@@H](CO)O1
→ .	-5%[8 µM]
> Cn1c(=O)c2c(nc(CN3CCN(Cc4ccccc4)CC3)n2Cc2ccccc2)n(C)c1=O
→ >57	11%
> COC(=O)c1ccc(CN(C)S(=O)(=O)c2ccc(C)cc2)o1
→ >57	1%
> COc1ccccc1N1CCN(C(CNC(=O)C2CCCCC2)c2cccnc2)CC1 (centres undefined)
→ >57	7%
> COc1ccc(C(=O)N2CCN(Cc3cc(OC)c(O)c(OC)c3)CC2)cc1OC
→ >57	7%
> N#CC(C#N)=Cc1ccc(O)c(O)c1
→ ?	?
> O=C(c1cccc(S(=O)(=O)N2CCCC2)c1)c1cccc(S(=O)(=O)N2CCCC2)c1
→ .	10%
> Cc1cc(N2CCN(c3nc(N4CCOCC4)nc4ccccc34)CC2)c2ccccc2n1
→ >57	9%
> CC(=O)N(C)C1(c2nnnn2CCOC(=O)Nc2cccc3ccccc23)CCCC1
→ >57	-7%
> CCOc1ccccc1-c1nc(-c2cc3ccc(C)cc3[nH]c2=O)no1
→ >57	4%
> COc1ccc(S(=O)(=O)N[C@@H](Cc2ccccc2)C(=O)N2CC[C@@]3(O)CCCC[C@H]3C2)cc1
→ >57	8%
> Cc1nc(=O)c(-c2ccccc2)c(C)n1-c1ccccc1C(=O)O
→ >57	-2%
> O=C(NCc1ccc(C(=O)N2CCC3(CC2)OCCO3)cc1)c1ccc2c(c1)OCO2
→ >57	-4%
